MT1-MMP promoter: inhibitors of MT1-MMP promoter transcription, cell-based, luciferase reporter, luminescence (AID 618); 87,000 compounds, 0.62% hits; MT1-MMP promoter luciferase reporter cells, luminescence; calls from a first round at 10 µM; hits with a dose series show EC50 in µM;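 active = over half of the reporter light lost at 10 µM or EC50 under 50 µM; inactive = the rest and hits that failed the dose series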;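 note: actives suppress MT1-MMP promoter-driven transcription so potencies describe inhibitors; HT1080 fibrosarcoma cells; overnight exposure; toxic or luciferase-blocking compounds were not removed from the actives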
WNV NS2B-NS3 inh: blocks West Nile virus NS2B-NS3 protease activity | 65,000 compounds, 0.18% hits | z-score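 (tested at a level between 10 and 100 µM)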 | WNV NS2B-NS3 protease, fluorogenic substrate Ex360/Em465; hits give low values;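 active = z-score at -3 or under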;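 note: score is relative to mean and spread of the compound wells of a plate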
Target sequence (P06935 1371-1501 limits assumed): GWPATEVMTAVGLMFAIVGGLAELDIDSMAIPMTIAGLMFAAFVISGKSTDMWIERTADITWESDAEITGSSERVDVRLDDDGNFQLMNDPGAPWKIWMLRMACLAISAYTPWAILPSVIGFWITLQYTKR
Target sequence (P06935 1502-1679 limits assumed): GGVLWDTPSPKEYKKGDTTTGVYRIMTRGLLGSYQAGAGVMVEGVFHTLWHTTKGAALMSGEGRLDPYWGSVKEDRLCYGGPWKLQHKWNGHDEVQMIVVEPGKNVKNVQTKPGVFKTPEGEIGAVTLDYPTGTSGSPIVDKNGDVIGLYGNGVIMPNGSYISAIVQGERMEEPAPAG
Hsc70 ATP site: Hsc70 inhibitors, probe displacement, primary screen, biochemical, fluorescence polarization (AID 568) | Hsc70 fluorescence polarization, probe displacement; higher % means a stronger effect; strong numbers were not always called active | displacement, % at 20 µM; hits with a dose series show IC50 in µM | 83,000 tested, under 10 active;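 active = displacement above 50% without optical interference and an IC50 on retest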;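 note: ATPase domain with a fluorescein-tagged ATP probe; 0% = vehicle and 100% = excess ADP; read after one hour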
The depositor's hits bear a star; i = inactive; . = not tested or not shown. A portion of the library; the hit share may differ from the screen's.

SMILES | MT1-MMP promoter | WNV NS2B-NS3 inh | Hsc70 ATP site
Cc1ccc(NS(=O)(=O)c2ccc(NC(=O)c3ccc(Br)o3)cc2)c(C)c1 | i | 0.65 | 4.3%
CCOc1ccc(NC(=O)CSc2nnc(-c3ccccc3Cl)n2Cc2ccco2)cc1 | i | 2.01 | -1.4%
COc1ccc(Cn2c(=O)[nH]c3cc(C(=O)N4CCN(Cc5ccccc5)CC4)ccc3c2=O)cc1 | i | -0.07 | 1.2%
O=C(CCS(=O)(=O)c1cccc2nonc12)N1CCOCC1 | i | 0.66 | 0.5%
O=C(O)CCC(=O)NC1CCCCC1NC(=O)CCC(=O)O (stereo unspecified) | i | -1.08 | -0.4%
C=CCOc1ccc(/C(O)=C2/C(=O)C(=O)N(CCCN3CCOCC3)C2c2ccc(OC)cc2)cc1 (stereo unspecified) | i | -0.45 | -6.3%
Fc1ccccc1CSc1nnc(-c2cccs2)o1 | i | -0.08 | 0.2%
Cc1ccc2c(CC(=O)NCc3ccc4c(c3)OCO4)coc2c1 | i | 1.43 | -5.4%
COc1ccc(NC(=O)CN2c3cccc4cccc(c34)S2(=O)=O)c(OC)c1 | i | . | -1.3%
COc1cc(OC)c(N2CC34C=CC(O3)C(C(=O)O)C4C2=O)cc1Cl (stereo unspecified) | i | 0.29 | 2.2%
CS(=O)(=O)N1CCC(C(=O)NCc2ccncc2)CC1 | i | -1.43 | 2.8%
CC(C)Nc1c(N)c(=O)oc2ccccc12 | i | 2.04 | 0.6%
CC1CCN(CCCNC(=O)C2CC(=O)N(C3CCCCCC3)C2)CC1 (stereo unspecified) | i | 0.89 | -11.1%
CCCCc1c(C)c(C#N)c2nc3ccccc3n2c1Nc1c(C)n(C)n(-c2ccccc2)c1=O | i | . | 0.8%
COc1ccc(OC)c(C2SCCN2S(C)(=O)=O)c1 (stereo unspecified) | i | . | 6.1%
CCCOc1cccc(C(=O)Nc2nnn(CCC)n2)c1 | i | -0.17 | 1.2%
CCn1c(SCC(=O)N2CCCCC2C)nnc1-c1ccc(S(=O)(=O)N2CCN(C)CC2)cc1 (stereo unspecified) | i | . | 0.5%
COc1cc(C2=Nc3c(c(C)nn3-c3ccccc3)P(=O)(N3CCOCC3)O2)cc(OC)c1OC (stereo unspecified) | i | . | -0.4%
CC(=O)NC(CCS(C)(=O)=O)C(=O)Nc1cccc(C)c1 (stereo unspecified) | i | 0.28 | -5.1%
Cc1ccc(N(CC(N)=O)C2SC(=O)NC2=O)cc1 (stereo unspecified) | i | . | 4.7%
O=C(Cn1nnc(-c2ccc(Cl)cc2)n1)NCC1CCCCC1 | i | 1.37 | -0.5%
CCOC(=O)C(CC)n1nc(C)n2c(cc3sccc32)c1=O (stereo unspecified) | i | -1.24 | 1.2%
CCOC(=O)C1CCCN(Cc2c(F)cccc2Cl)C1 (stereo unspecified) | i | -0.52 | 6.1%
COc1cccc(CN(Cc2ccco2)C(c2ccc(F)cc2)c2nnnn2C(C)(C)C)c1 (stereo unspecified) | i | 0.01 | -1.8%
CCOC(=O)C(NCCCO)c1ccccc1 (stereo unspecified) | i | 0.17 | -9.6%

The listing continues.
SMILES | MT1-MMP promoter | WNV NS2B-NS3 inh | Hsc70 ATP site
COc1ccc(-c2nc(N)n(C(C)=O)n2)cc1 | i | 1 | 2.7%
Cc1ccc(N2C(=O)[C@@H]3Cc4ccccc4CN3C2=O)cc1 | i | 0.59 | 1.0%
CC(=O)NCc1ccc(C(=O)CSc2nnc(-c3ccncc3)n2Cc2ccccc2)o1 | i | -0.73 | -6.1%
COc1ccc(C(=O)Cn2nnc(-c3ccccc3NC(=O)c3ccco3)n2)cc1 | i | -0.24 | -9.0%
CCOC(=O)c1c(NC(=O)C2COc3ccccc3O2)sc(C)c1C (stereo unspecified) | i | . | -2.2%
COc1ccc(Cc2nn3c(-c4cc(OC)c(OC)c(OC)c4)nnc3s2)cc1 | i | -0.49 | 0.1%
NCCCCCc1nnc(SCc2ccc(Cl)cc2Cl)o1 | i | . | 6.3%
COC(=O)c1[nH]c2cc(OC)c(OC)cc2c1NC(=O)c1cccc(OC)c1 | i | 1.3 | -3.7%
CCc1ccc(C(C(=O)NCCOC)N(C(=O)Cn2nnc3ccccc32)c2cccnc2)cc1 (stereo unspecified) | i | . | -5.3%
Cc1cc(NC(=O)CSc2nc(-c3cccs3)cc(C(F)(F)F)n2)no1 | i | -0.57 | -2.8%
COc1ccc(CC(=O)Nc2ccc3c(c2)OCO3)cc1S(=O)(=O)N1CCOCC1 | i | 0.49 | -1.7%
N#CCCN1CCN(Cc2cc(-c3ccccc3)ccc2O)CC1 | i | 1.5 | -0.4%
CCOC(=O)c1c(C)c(C(=O)N2CCc3ccccc3C2)c(C)n1CC | i | -0.57 | -0.5%
CC1CC(C)CN(c2oc(-c3ccccc3Cl)nc2C#N)C1 (stereo unspecified) | i | -1.59 | -3.0%
O=C(CS(=O)(=O)c1ccccc1)N1CCCCCC1 | i | -0.7 | 7.8%
CC(C)(C)OC(=O)NC(CCCCNC=O)C(=O)O (stereo unspecified) | i | 0.65 | -0.7%
CCOC(=O)c1cccc(Nc2nc(C)cc(C)n2)c1 | i | -0.08 | -1.3%
O=C(CCn1c(=S)[nH]c2ccccc2c1=O)N1CCN(c2ccccn2)CC1 | i | -0.9 | -0.7%
COc1cccc(OC)c1C(=O)N1CCN=C1SCc1cccnc1 | i | 1.02 | -5.8%
COC(=O)c1ccc(NC(=O)C2CCCN(S(=O)(=O)c3cnc[nH]3)C2)cc1 (stereo unspecified) | i | 0.73 | 2.4%
N#CCCN1CCN(S(=O)(=O)c2ccc(S(=O)(=O)NC3CC3)cc2)CC1 | i | -0.81 | -0.4%
CCCCc1c(CCC)c(=N)c2ccccc2n1C | i | . | 3.6%
C/C(=N\NS(=O)(=O)c1ccc(C)cc1)c1cccs1 | i | . | 1.5%
Cc1ccc(CN2C(=O)CCC2C(=O)NCCCN2CCCC(C)C2)cc1 (stereo unspecified) | i | 0.03 | -8.2%
O=C(Oc1ccc(Cl)cc1)c1ccc(COC(=O)c2cnccn2)cc1 | i | . | 6.1%

Further compounds follow.
SMILES | MT1-MMP promoter | WNV NS2B-NS3 inh | Hsc70 ATP site
CCn1c(CC(=O)Nc2ccc(C)c(Cl)c2)nnc1SCCOc1ccc(OC)cc1 | i | . | 1.6%
N#CC1=C(N)C(C#N)(C#N)C(c2cccnc2)C2CC(c3ccccc3)CC=C12 (stereo unspecified) | i | . | -3.4%
CCOC(=O)C1=C(C)Nc2ncnn2C1c1ccc(N(C)C)cc1 (stereo unspecified) | i | -1.02 | -0.1%
CN1CCN(C(=O)c2c(O)c3cccc4c3n(c2=O)CCC4)CC1 | i | -1.41 | 2.2%
CCOC(=O)c1c2n(c3c(NCc4ccccc4)ncnc13)CCCC2 | i | -0.75 | -8.3%
COc1nnc(-c2ccc(C(=O)N3C[C@@H]4C[C@H](C3)c3cccc(=O)n3C4)cc2)c2ccccc12 | i | -0.72 | -6.3%
CCOC(=O)C1CCCN(c2ccc(NC(=O)c3snc4c(=O)[nH]cnc34)cc2)C1 (stereo unspecified) | i | -0.23 | -6.4%
CCCCSc1nnc([C@H](CC(C)C)NC(=O)OC(C)(C)C)o1 | i | -0.3 | 5.1%
CCCn1c(SCC(=O)Nc2ccccc2CC)nnc1C(C)C | i | -0.86 | -5.1%
CC(C)Sc1oc(-c2ccco2)nc1S(=O)(=O)c1ccc(F)cc1 | i | -1.09 | -1.2%
O=C(O)Cc1ccccc1C(=O)O | i | -0.7 | -1.1%
COc1ccc(Cl)cc1S(=O)(=O)N1CCN(C(=O)COc2ccccc2)CC1 | i | -1.82 | 0.5%
CCC(Sc1ncccc1C(=O)O)C(=O)N1CCOCC1 (stereo unspecified) | i | -0.82 | -0.9%
CC(=O)c1ccc(N2CCN(S(=O)(=O)c3cccc(S(=O)(=O)N4CCOCC4)c3)CC2)cc1 | i | 1.25 | 2.4%
Cc1ccc(Nc2nc(N)nc(CN3CCN(C(=O)c4ccco4)CC3)n2)cc1Cl | i | -0.59 | -15.1%
CC(C)(C)n1nnnc1C(c1ccc(C(F)(F)F)cc1)N(Cc1ccccc1)Cc1ccco1 (stereo unspecified) | i | . | 3.6%
O=C(O)CC(C(=O)OC1CCCCC1)N1CCOCC1 (stereo unspecified) | i | -0.56 | 0.3%
CCOC(=O)C(NC(=O)c1ccccc1)(N1CCOCC1)C(F)(F)F (stereo unspecified) | i | -0.1 | 1.9%
CCOc1ccccc1N(CC(=O)Nc1ccc2c(c1)OCCO2)S(C)(=O)=O | i | 1.73 | -7.7%
CCCCn1c(SCC(=O)N2CC(C)CC(C)C2)nc2cc(S(N)(=O)=O)ccc21 (stereo unspecified) | i | 0.05 | -0.3%
CCOc1ccc(OCCSc2nc(C)cc(=O)[nH]2)cc1 | i | -0.63 | 3.6%
Cc1cc(Br)c2[nH]c3c(c2c1)CCCC3=O | i | . | -2.3%
COc1cc(C(=O)Nc2cc(-c3nc4cc(C)ccc4o3)ccc2C)cc(OC)c1OC | i | 1.45 | -26.6%
CCOC(=O)c1c(N)sc(-c2ccccc2)c1C | i | . | -3.7%
COCCn1nnnc1C(c1ccccn1)N1CCN(c2cccc(C)c2C)CC1 (stereo unspecified) | i | . | 0.4%

One compound at a time, as listed above:
`CCOC(=O)c1c(NC(=O)C2COc3ccccc3O2)sc(C)c1C` (stereo unspecified) as listed: MT1-MMP promoter = i; WNV NS2B-NS3 inh = .; Hsc70 ATP site = -2.2%
`O=C(O)Cc1ccccc1C(=O)O` as listed: MT1-MMP promoter = i; WNV NS2B-NS3 inh = -0.7; Hsc70 ATP site = -1.1%

Back to the main list; the 7 compounds before the break are reprinted first.
SMILES | MT1-MMP promoter | WNV NS2B-NS3 inh | Hsc70 ATP site
CCOc1ccccc1N(CC(=O)Nc1ccc2c(c1)OCCO2)S(C)(=O)=O | i | 1.73 | -7.7%
CCCCn1c(SCC(=O)N2CC(C)CC(C)C2)nc2cc(S(N)(=O)=O)ccc21 (stereo unspecified) | i | 0.05 | -0.3%
CCOc1ccc(OCCSc2nc(C)cc(=O)[nH]2)cc1 | i | -0.63 | 3.6%
Cc1cc(Br)c2[nH]c3c(c2c1)CCCC3=O | i | . | -2.3%
COc1cc(C(=O)Nc2cc(-c3nc4cc(C)ccc4o3)ccc2C)cc(OC)c1OC | i | 1.45 | -26.6%
CCOC(=O)c1c(N)sc(-c2ccccc2)c1C | i | . | -3.7%
COCCn1nnnc1C(c1ccccn1)N1CCN(c2cccc(C)c2C)CC1 (stereo unspecified) | i | . | 0.4%
CCOC(=O)c1cc2sccc2n1CC(=O)Nc1ccc(OC)cc1 | i | . | 0.4%
c1cncc(-c2nnc3sc(C4CCCCC4)nn23)c1 | i | 1.16 | 3.8%
CCOC(=O)N1CCN(C(=O)C2CCN(S(=O)(=O)CC)CC2)CC1 | i | 0.65 | 1.9%
COc1ccc2nc(C)c(C(=O)OCCN(C)C)cc2c1 | i | 0.68 | -6.4%
COc1cc(C(=O)N2CCN(C(=O)c3ccccc3)CC2)cc(OC)c1OC | i | 1.31 | 0.5%
COc1ccc(CC(=O)Nc2ccc(S(=O)(=O)Nc3cc(C)on3)cc2)cc1OC | i | . | -2.7%
O=C(CN1CCN(CC(=O)Nc2ccccc2C(F)(F)F)CC1)Nc1ccccc1F | i | -0.06 | 3.6%
CC(C)n1cnc2cc(NCc3ccccn3)ccc21 | i | . | 1.6%
CCn1c(COc2ccc(C)cc2)nnc1SCC(=O)Nc1ccc2c(c1)OCCO2 | i | 1.96 | 1.0%
Cc1ccccc1-c1noc(-c2cccs2)n1 | i | 0.68 | 0.1%
Cc1ccccc1NCc1ccc(O)c2ncccc12 | i | . | 6.0%
Cc1c(C#N)c(N=CN(C)C)c(C(=O)c2ccc(Br)cc2)n1-c1ccccc1 | i | . | -0.4%
CCC1CCCCN1c1nc2c(c(=O)n(C)c(=O)n2C)n1CCSc1nc2ccccc2o1 (stereo unspecified) | i | 0.01 | -1.9%
O=C(COc1ccc(S(=O)(=O)N2CCOCC2)cc1)NC1CCCC1 | i | 0.02 | 4.9%
CCOc1ccc(Cl)cc1CN1CCOCC1 | i | . | -2.1%
O=C(Nc1nc2ccccc2n1Cc1ccccc1)c1ccco1 | i | 0.91 | 2.8%
COc1ccc(N(CC(=O)NC2CCCCCCC2)S(=O)(=O)c2c(C)nn(C)c2C)cc1 | i | -0.64 | -0.1%
CCOc1ccccc1NC(=O)Cn1nnc(-c2ccc(OCC)c(OCC)c2)n1 | i | -0.65 | -2.6%
Cc1nc2cc(NC(=O)N(C)c3ccc4ccccc4c3)ccc2o1 | i | -1.51 | 5.9%
CCCCCCn1c(CN2CCCCC2CC)nc2c1c(=O)n(C)c(=O)n2C (stereo unspecified) | i | 0.96 | -1.8%
Cc1cc(C(F)(F)F)c(C#N)c(SCC(=O)NC2CC2)n1 | i | 0.48 | -3.5%
COC(=O)c1ccc(CC(=O)c2c(C)cc(O)cc2O)o1 | i | -1.27 | -12.9%
Cc1cc(N2CCN(C)CC2)nc(N2CCOCC2)n1 | i | 1.06 | 2.7%
N#Cc1nc(-c2ccccc2Cl)oc1NCc1ccco1 | i | 0.2 | -5.5%

Compound activity: PubChem, several laboratories
